Screens deposited in PubChem by National Center for Advancing Translational Sciences (NCATS).
TRPML1 blocker = blocks the human TRPML1 channel; Q9GZU1; TRPML1-inducible cells, Ca2+ dye fluorescence, FDSS; stronger effect = lower value; inhibition of EC80 agonist-evoked calcium signal; activity change, negative = inhibition, % (concentration not given with the values); hit rate 0.02% among 390,000; in the data active means activity change below about -50%; inconclusive means about -30% to -50%; inactive means above about -30%;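 note: stimulus is agonist 54-4 at its EC80 concentration; % is set by controls: 0 for no effect and ±100 for the full control effect; compound concentration not given in the record; the text of the record puts the active cut at -80%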
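TRPML1-DL cells, Tet-induced overnight (~16 h, 37 °C) at 1,500 cells/well, were loaded with Ca8 no-wash dye plus quencher for 45-90 min at room temperature. Compounds were pinned during FDSS kinetic reading; agonist 54-4 at EC80 (4 uM final) then added.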
Sfp inh = inhibitors of Bacillus subtilis Sfp phosphopantetheinyl transferase | Biochemical Sfp PPTase activity, qHTS | Potency, µM, for the others: max response, negative = inhibition, actives largely listed as inhibitors | hit rate 3.5% among 310,000 | AID 1490; active = well fitted inhibition curve with a large enough effect; inconclusive = small, poorly fitted or top-dose-only effect, or another doubt; inactive = no such curve, though single readings can be large or run the other way;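 note: the enzyme is Sfp with the accession as filed and its product quenches rhodamine fluorescence; potency is the fitted concentration of half-maximal effect; 0% = enzyme reaction without inhibitor and -100% = no enzyme wells; top concentration of the series not given in the record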
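Step 1, compound plus 15 nM Sfp-PPTase, 15 min, room temperature. Step 2, add rhodamine-CoA (5 uM) and BHQ-2-YbbR (12.5 uM). Step 3, read 525/598 nm fluorescence at 0 and 30 min.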
PINK1 modulator = PINK1 expression modulation; PINK1 immunofluorescence, high-content cytometry, 24 h; Potency, µM (series often up to 76.6 µM), inactives show at the top dose activation (PINK1 increase), actives largely listed as activators; hit rate 0.2% among 410,000; AID 624263; active = well fitted activation curve with a large enough effect; inconclusive = small, poorly fitted or top-dose-only effect; inactive = flat fitted curve, though single readings scatter; cell line not stated here;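 note: potency is the fitted concentration of half-maximal effect; % of control where 0% means no effect; nearly all actives have a fitted effect of over 65% in size; a mitochondrial uncoupler was the plate control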
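A stable cell line was treated with compounds at 5 concentrations for 24 hours, with CCCP as control. PINK1 levels and mitochondrial localization were measured by immunofluorescence with mitochondrial, cell and nuclear markers after fixation, read by laser-scanning cytometry.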
TRPML1 agonist = agonists of human TRPML1 channel; TRPML1-expressing cells, Ca2+ dye fluorescence, FDSS; host cell line not named in the record; reference of the full effect not given here; hit rate 0.12% among 410,000; AID 624414; activation, % (concentration not given with the values); in the data active = activation above about 50%; inconclusive = about 30% to 50%; inactive = below about 30%; note: 0% is about no effect; the text of the record puts the active cut at 80%
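Kinetic FDSS Ca2+ read in Tet-induced TRPML1-DL cells (ABD Ca8 dye plus quencher, 45-90 min RT loading): baseline, then compound, then 110 s agonist window; EC80 agonist 54-4 at 4uM final added afterwards for a 110 s antagonist window.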
Menin-MLL FL inh = displaces fluorescein MLL peptide from human menin | Fluorescence polarization, fluorescein-MLL peptide displacement from menin | FP activity change, % at 61.4 µM | 290,000 tested, under 10 active | AID 1766; inconclusive = falling polarisation curve, or a change in total fluorescence; inactive = total fluorescence flat and polarisation flat or rising; no compound was filed as active; the % refers to the polarisation; negative = inhibition;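 note: % of control where 0% means no effect; inhibitors lower the polarisation; unlabelled MLL peptide was the positive control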
TRPV1 potentiator = enhances activation of the human vanilloid receptor TRPV1; Q8NER1; TRPV1-expressing cells, Fluo-8 calcium influx, capsaicin EC20 potentiation; host cell line not named in the record; control for the full effect not named in the record; potentiation, % at 8.33 µM; hit rate 0.02% among 320,000; AID 540277; active means potentiation above 80%; inconclusive means 30% to 80%; inactive means below 30%; note: 0% is about no effect
Target sequence (Q8NER1 whole entry, looked up): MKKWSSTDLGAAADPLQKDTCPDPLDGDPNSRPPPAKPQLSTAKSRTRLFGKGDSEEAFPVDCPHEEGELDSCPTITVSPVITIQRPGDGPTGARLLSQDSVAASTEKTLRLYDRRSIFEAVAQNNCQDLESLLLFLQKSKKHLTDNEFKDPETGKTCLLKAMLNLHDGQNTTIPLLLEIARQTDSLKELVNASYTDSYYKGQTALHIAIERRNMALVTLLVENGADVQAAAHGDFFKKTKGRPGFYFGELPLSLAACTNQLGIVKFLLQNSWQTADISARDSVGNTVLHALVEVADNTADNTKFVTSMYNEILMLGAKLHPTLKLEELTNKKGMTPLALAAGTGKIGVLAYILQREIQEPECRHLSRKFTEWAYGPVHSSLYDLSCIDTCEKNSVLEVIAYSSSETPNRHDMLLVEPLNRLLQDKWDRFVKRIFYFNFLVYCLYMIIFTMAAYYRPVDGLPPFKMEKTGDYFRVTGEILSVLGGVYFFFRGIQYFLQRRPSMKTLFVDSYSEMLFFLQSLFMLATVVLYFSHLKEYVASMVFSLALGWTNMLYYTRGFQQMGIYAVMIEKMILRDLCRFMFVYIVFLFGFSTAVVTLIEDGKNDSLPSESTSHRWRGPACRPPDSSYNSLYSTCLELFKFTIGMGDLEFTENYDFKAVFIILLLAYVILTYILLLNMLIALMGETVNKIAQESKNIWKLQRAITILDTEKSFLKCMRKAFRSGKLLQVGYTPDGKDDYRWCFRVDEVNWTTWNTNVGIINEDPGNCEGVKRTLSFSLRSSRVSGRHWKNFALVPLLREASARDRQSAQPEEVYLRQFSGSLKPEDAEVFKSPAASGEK
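Fluo-8 calcium influx in TRPV1-expressing cells, kinetic read (ex 480/em 520 nm). Compound added and read 3 min for agonist activity, followed by capsaicin at EC20 final and 2 min further read for enhancement.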
ClpP mod = qHTS Assay for Activators of ClpP | hit rate 1.9% among 340,000 | ATP-dependent Clp protease proteolytic subunit (Bacillus subtilis (strain 168)), P80244 | purified B. subtilis ClpP, FRET peptide cleavage, 20 min | Potency, µM (top dose mostly 57.5 µM), for inactives: top-dose activity change, negative = active; active = well fitted falling curve with a large enough effect; inconclusive = small, poorly fitted or top-dose-only effect; inactive = no such curve, though single readings can be large or run the other way; note: potency is the fitted concentration of half-maximal effect; the source files actives as falling curves though it sought activators and does not explain the sign; nearly all actives have a fitted effect of over 65% in size; many hits overshoot -100%
Target sequence (P80244 whole entry, looked up): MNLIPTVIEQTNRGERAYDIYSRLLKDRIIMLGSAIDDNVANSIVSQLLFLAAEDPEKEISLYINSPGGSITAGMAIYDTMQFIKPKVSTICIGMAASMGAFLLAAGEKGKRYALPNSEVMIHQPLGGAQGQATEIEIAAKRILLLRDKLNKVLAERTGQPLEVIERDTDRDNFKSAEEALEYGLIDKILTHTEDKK
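FRET quenching reversal measured ClpP activation: 10 microg/mL B. subtilis ClpP at pH 8 with the FRET-FV decapeptide, read at 430 nm after 320 nm excitation. The 20-min minus 0-min signal was scaled between DMSO/no-enzyme wells and ADEP (5.8 microM final).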
Starred values were filed as active, the others as inactive; & = joins results of further samples; [ ] = remark or other dose.

Cc1ccc(-n2c(C)cc(=O)cc2C)cc1[N+](=O)[O-] was read as TRPML1 blocker 27.5, Sfp inh 9.0%, PINK1 modulator 2.0%, TRPML1 agonist -0.5, Menin-MLL FL inh -1.0 and TRPV1 potentiator 13.4.
For O=C(Nc1ccc2nc(-c3ccco3)c(-c3ccco3)nc2c1)N1CCCC1 the results were TRPML1 blocker 6.3, PINK1 modulator 2.1%, TRPML1 agonist 3.7 and TRPV1 potentiator -6.1.
`Cc1ccc(N(C(C)C(=O)O)S(=O)(=O)c2c(C)n[nH]c2C)cc1` (centres undefined) gave TRPML1 blocker -3.6, Sfp inh 21.2%, PINK1 modulator 1.4%, TRPML1 agonist -0.3, Menin-MLL FL inh -1.5, TRPV1 potentiator 3.6 and ClpP mod -1.3%.
CCN(CC)CCCNC(=O)Cn1ncn2cccc2c1=O was read as TRPML1 blocker 0.8, Sfp inh 11.0%, PINK1 modulator -3.0%, TRPML1 agonist -0.1, Menin-MLL FL inh 1.8, TRPV1 potentiator 0.2 and ClpP mod -1.3%.
`CCCCNC(=O)C(CC)Sc1nnc(-c2cccc(F)c2)c(-c2cccc(F)c2)n1` (centres undefined) gave TRPML1 blocker -0.5, PINK1 modulator -0.4%, TRPML1 agonist 2.9 and ClpP mod -2.4%.
For Cn1c(=O)oc2cc(S(=O)(=O)N3CCC(C(=O)NCc4ccccc4)CC3)ccc21 the results were TRPML1 blocker 4.7&4.0, Sfp inh 17.0%, PINK1 modulator 1.7%&2.7%, TRPML1 agonist 0.2&-0.3, Menin-MLL FL inh -0.5, TRPV1 potentiator -19.1 and ClpP mod -4.1%&-10.1%.
CC(C)NC(=O)N(C)C[C@H]1OCCCC[C@H](C)Oc2ccc(NS(=O)(=O)c3ccccc3)cc2C(=O)N([C@H](C)CO)C[C@H]1C was read as TRPML1 blocker -12.7, PINK1 modulator 0.1%, TRPML1 agonist 0.4 and ClpP mod -2.9%.
`CCc1nnc(NC(=O)CSc2nnc(-c3ccccc3O)n2-c2ccc(C)cc2)s1` gave TRPML1 blocker 25.5, Sfp inh 9.2%, PINK1 modulator 6.2%, TRPML1 agonist 5.3, Menin-MLL FL inh -0.3, TRPV1 potentiator 3.3 and ClpP mod -0.4%.
For COc1cc2ccccc2cc1C(=O)N1CCN(C(C)=O)CC1 the results were TRPML1 blocker 0.0, Sfp inh -1.1%, PINK1 modulator -0.2%, TRPML1 agonist -0.5, TRPV1 potentiator -5.4 and ClpP mod inconclusive.
CCC(C)NC(=O)CSc1nc2cc3c(cc2c(=O)n1CCCCCC(=O)NCc1ccc2c(c1)OCO2)OCO3 (centres undefined) was read as TRPML1 blocker 31.2, PINK1 modulator 0.3%, TRPML1 agonist 1.7 and ClpP mod -4.1%.
NC(=O)c1nnn(Cc2cc(Cl)c(C(=O)c3ccc(Cl)cc3)c(Cl)c2)c1N was read as PINK1 modulator 7.4%, TRPML1 agonist -0.5 and ClpP mod -2.0%.
Screening CN(Cc1ccccc1)C(=O)c1ccc(NC(=O)Cc2ccc(NC(=O)C3CCCN(C(=O)C4CCCCC4)C3)cc2)cc1 (centres undefined) returned TRPML1 blocker -7.7, PINK1 modulator -0.9%, TRPML1 agonist 1.2 and ClpP mod -3.1%.
Screening COc1ccc(CCNc2nncc(=O)[nH]2)cc1OC returned TRPML1 blocker -11.2, Sfp inh 16.3%, PINK1 modulator -1.3%[38.3 µM], TRPML1 agonist -0.1, Menin-MLL FL inh 0.6, TRPV1 potentiator 5.9 and ClpP mod -1.1%.
`COc1ccc(C(=S)N2CCOCC2)cc1OS(=O)(=O)c1ccc(Br)cc1` gave TRPML1 blocker 6.0, Sfp inh -4.7%, PINK1 modulator 2.8%, TRPML1 agonist 1.1, TRPV1 potentiator 9.8 and ClpP mod -1.1%.
`Cc1ccc(N2C(=O)C3C=NNC3C2=O)cc1` (centres undefined) gave TRPML1 blocker -3.2, Sfp inh -5.8%, PINK1 modulator 2.0%, TRPML1 agonist 0.0, Menin-MLL FL inh -1.3, TRPV1 potentiator 0.1 and ClpP mod -3.2%.
C=CC[C@@H](Cc1ccc(F)cc1)C(=O)OC[C@@H]1CCCN1C(=O)[C@@H](CC=C)CC(=O)NCCO was read as TRPML1 blocker 5.4, PINK1 modulator 0.4%, TRPML1 agonist -0.8 and ClpP mod 1.1%.
For Cc1csc(NC(=O)Cn2cnnn2)n1 the results were TRPML1 blocker -7.2, Sfp inh 10.3%, PINK1 modulator 3.8%, TRPML1 agonist -0.8, Menin-MLL FL inh 0.9, TRPV1 potentiator 0.8 and ClpP mod -0.4%.
Screening COC(=O)c1c(CCl)noc1C(=O)NC(C)C returned TRPML1 blocker -0.6, Sfp inh 13.5%, PINK1 modulator 1.8%, TRPML1 agonist -0.1, Menin-MLL FL inh 0.4, TRPV1 potentiator 5.8 and ClpP mod 0.9%.
C[C@@H]1O[C@H](CCc2cccc(Cl)c2)CC2=C1C(=O)OC(C)(C)O2 was read as PINK1 modulator 1.0%, TRPML1 agonist -0.3 and ClpP mod 0.8%.
`Cc1oc(-c2cc(F)ccc2F)nc1CN1CCN(C)C(=O)[C@@H]1C` gave TRPML1 blocker -11.2, Sfp inh 9.5%, PINK1 modulator 0.9%, TRPML1 agonist 0.5, Menin-MLL FL inh -3.2 and TRPV1 potentiator -40.2.
For Oc1ccc(-c2csc(Nc3ncccn3)n2)c(O)c1 the results were TRPML1 blocker -5.1, Sfp inh 50.1µM*, PINK1 modulator 1.2%, TRPML1 agonist 0.0, Menin-MLL FL inh -1.9 and TRPV1 potentiator 9.9.
For COc1ccc(Cc2nnc(-c3cccc(C)c3)o2)cc1OC the results were TRPML1 blocker 11.9, Sfp inh -1.8%, PINK1 modulator -0.1%, TRPML1 agonist -0.9, Menin-MLL FL inh 5.2, TRPV1 potentiator -2.5 and ClpP mod -3.9%.
For Cc1ccc(CN2CCCN(Cc3c(F)cccc3Cl)S2(=O)=O)cc1 the results were TRPML1 blocker 79.1, Sfp inh -6.6%, PINK1 modulator 3.1%, TRPML1 agonist 4.4, Menin-MLL FL inh -7.0 and TRPV1 potentiator 18.6.
Cc1ccc2c(c1)cc(CN(Cc1ccc3c(c1)OCO3)S(=O)(=O)c1ccccc1)c1nnnn12 was read as TRPML1 blocker 44.3, Sfp inh 3.0%, PINK1 modulator 4.2%, TRPML1 agonist 1.2, Menin-MLL FL inh -1.1, TRPV1 potentiator inconclusive and ClpP mod -2.5%.
`O=C(NCCc1ccccc1F)c1cc(COc2ccc(F)cc2F)on1` gave TRPML1 blocker -11.3, PINK1 modulator 1.9%, TRPML1 agonist -0.2 and ClpP mod 0.4%.
`Cc1csc2nc(COc3ccccc3NC(=O)c3ccc(C(C)(C)C)cc3)cc(=O)n12` gave TRPML1 blocker 20.7, PINK1 modulator 1.5%, TRPML1 agonist -0.5 and ClpP mod -2.9%.
`CC(=O)Nc1ccc(S(=O)(=O)NCC2CCC(C(=O)NC(C)c3ccc4c(c3)OCCO4)CC2)cc1` (centres undefined) gave Sfp inh -4.8%, Menin-MLL FL inh 0.2 and TRPV1 potentiator 11.2.
C/C(=N\Nc1nc(C(C)(C)C)cs1)c1ccccc1 was read as Sfp inh -15.6%, PINK1 modulator inconclusive, Menin-MLL FL inh 1.8, TRPV1 potentiator -2.5 and ClpP mod -0.4%.
Screening COc1cc(OC)c(NC(=S)Nc2cccc(C)c2)cc1Cl returned TRPML1 blocker 51.9, Sfp inh -17.1%, PINK1 modulator -1.8%, TRPML1 agonist 0.6, Menin-MLL FL inh 0.9, TRPV1 potentiator 26.4 and ClpP mod -3.8%.
`CCOC(=O)NC(=O)/C(C#N)=C\NNc1ncc(C(F)(F)F)cc1Cl` gave TRPML1 blocker 15.8, Sfp inh 17.3%, PINK1 modulator 3.4%, TRPML1 agonist -0.7, Menin-MLL FL inh -0.6 and TRPV1 potentiator 3.1.
O=C(NCc1ccc(Cl)cc1)C1CCCN(c2nc3ccccc3n3cccc23)C1 (centres undefined) was read as TRPML1 blocker 33.3, PINK1 modulator -0.4%, TRPML1 agonist 3.1 and ClpP mod -22.6%.
Cc1ccccc1C(=O)Nc1cccc(NC(=O)c2ccccc2[N+](=O)[O-])c1 was read as TRPML1 blocker 14.6, Sfp inh 20.8%, PINK1 modulator -0.8%, TRPML1 agonist -0.9, Menin-MLL FL inh -5.4, TRPV1 potentiator 7.6 and ClpP mod 0.5%.
COc1ccccc1N1CCN(c2ccc(N3C(=O)CCC3=O)cc2[N+](=O)[O-])CC1 was read as TRPML1 blocker 9.0, Sfp inh 9.2%, PINK1 modulator 1.3%, TRPML1 agonist -0.3, Menin-MLL FL inh -0.2 and TRPV1 potentiator -4.0.
`Cc1ccc(NC(=S)Nc2ccc3cn[nH]c3c2)cc1` gave TRPML1 blocker 15.7, Sfp inh -6.8%, PINK1 modulator 1.6%, TRPML1 agonist 0.4, Menin-MLL FL inh 8.7, TRPV1 potentiator -18.7 and ClpP mod -11.8%.
Cc1cccc(Cc2nnc(CCC(=O)N(C)Cc3ccncc3C)o2)c1 was read as TRPML1 blocker -6.6, Sfp inh 4.8%, PINK1 modulator 0.4%, TRPML1 agonist -0.7, Menin-MLL FL inh 3.0 and TRPV1 potentiator -4.8.
For O=C(NC1CCCCCC1)C1CCN(C(=O)c2cccc(Cl)c2)CC1 the results were TRPML1 blocker -7.4, Sfp inh 5.7%, PINK1 modulator -1.8%, TRPML1 agonist -0.6, Menin-MLL FL inh -6.6 and TRPV1 potentiator 7.2.
`CC1=C(C(=O)Nc2ccccc2)C(c2ccc(O)cc2)N2C(=O)CSC2=N1` (centres undefined) gave TRPML1 blocker 9.3, Sfp inh 11.9%, PINK1 modulator 0.4%, TRPML1 agonist 2.2, Menin-MLL FL inh -1.8, TRPV1 potentiator 1.9 and ClpP mod -0.8%.
`COC(=O)c1ccc2c(=O)sc(N3CCC(C(N)=O)CC3)nc2c1` gave TRPML1 blocker -7.2, Sfp inh -0.6%, PINK1 modulator 0.0%, TRPML1 agonist 1.4, Menin-MLL FL inh -20.3, TRPV1 potentiator -18.1 and ClpP mod -6.6%.
`COc1ccccc1N1C(=O)c2ccccc2NC1c1ccncc1` (centres undefined) gave TRPML1 blocker 0.0, Sfp inh 14.9%, PINK1 modulator -0.9%, TRPML1 agonist 0.8, Menin-MLL FL inh 0.4, TRPV1 potentiator 15.7 and ClpP mod inconclusive.
